TRPML1 agonist: agonists of human TRPML1 channel. Q9GZU1. TRPML1-expressing cells, Ca2+ dye fluorescence, FDSS; host cell line not named in the record; reference of the full effect not given here. activation, % (no concentration beside the values). 410,000 tested, 0.12% active. AID 624414; in the data active = activation above about 50%; inconclusive = about 30% to 50%; inactive = below about 30%; further: 0% is about no effect; the text of the record puts the active cut at 80%
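Tet-induced TRPML1-DL cells, 1,500 per well, cultured overnight, were loaded with a no-wash Ca2+ dye for 45–90 min. Calcium fluorescence was recorded on the FDSS for 110 s after compound addition, before the EC80 agonist (4 uM 54-4) was added.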
TRPML1 blocker: blocks the human TRPML1 channel; Q9GZU1; TRPML1-inducible cells, Ca2+ dye fluorescence, FDSS; stronger effect = lower value; inhibition of EC80 agonist-evoked calcium signal; activity change, negative = inhibition, % (no concentration beside the values); 390,000 tested, 0.02% active; in the data active means activity change below about -50%; inconclusive means about -30% to -50%; inactive means above about -30%;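 further: stimulus is agonist 54-4 at its EC80 concentration; on the % scale 0 is the no-effect control and ±100 the full control effect; compound concentration not given in the record; the text of the record puts the active cut at -80%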
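TRPML1-DL cells, Tet-induced overnight (~16 h, 37 °C) at 1,500 cells/well, were loaded with Ca8 no-wash dye plus quencher for 45-90 min at room temperature. Compounds were pinned during FDSS kinetic reading; agonist 54-4 at EC80 (4 uM final) then added.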
CtBP-E1A blk: blocks the CtBP interaction with E1A. AlphaScreen GST-E1A/His-CtBP binding, 1536-well; stronger effect = lower value; control for the full effect not named in the record. activity change, % (test concentration not listed). 340,000 tested, 0.49% active. AID 651724; in the data active means activity change below about -65%; inconclusive means about -30% to -65%; inactive means above about -30%; further: on the % scale 0 is the no-effect control and ±100 the full control effect; compound concentration not given in the record
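In 5 uL wells, 23 nL compound meets equimolar GST-E1A and His-CtBP (5X stock 125 nM each) for 2 h, 37 °C. Beads (5X, 50 ug/mL) then 1 h, 37 °C, dark.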
Six1-Eya2 inh: inhibitors of human Six1/Eya2 interaction; 360,000 tested, 0.56% active; Q15475+O00167; AlphaScreen GST-Six1/His-Eya2 binding, biochemical; stronger effect = lower value; control for the full effect not named in the record; activity change, % (test concentration not listed); in the data active = activity change below about -65%; inconclusive = about -30% to -65%; inactive = above about -30%; further: on the % scale 0 is the no-effect control and ±100 the full control effect; compound concentration not given in the record
Target sequence (O00167 whole entry, looked up): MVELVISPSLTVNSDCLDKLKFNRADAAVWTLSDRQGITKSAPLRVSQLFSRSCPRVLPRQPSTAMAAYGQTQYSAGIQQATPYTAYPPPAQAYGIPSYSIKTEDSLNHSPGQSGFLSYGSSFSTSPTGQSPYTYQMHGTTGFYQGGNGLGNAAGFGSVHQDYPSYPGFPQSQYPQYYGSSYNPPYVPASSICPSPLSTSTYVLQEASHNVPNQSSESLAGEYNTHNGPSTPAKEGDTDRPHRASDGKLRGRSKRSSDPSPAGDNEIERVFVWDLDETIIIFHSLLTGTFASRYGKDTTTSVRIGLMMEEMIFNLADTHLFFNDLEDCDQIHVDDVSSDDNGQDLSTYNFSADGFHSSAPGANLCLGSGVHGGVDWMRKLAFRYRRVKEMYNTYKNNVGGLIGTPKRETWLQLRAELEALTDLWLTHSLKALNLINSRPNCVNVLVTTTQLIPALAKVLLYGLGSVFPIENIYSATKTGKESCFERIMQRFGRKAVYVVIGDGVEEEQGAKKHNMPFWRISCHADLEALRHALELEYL
Target sequence (Q15475 whole entry, looked up): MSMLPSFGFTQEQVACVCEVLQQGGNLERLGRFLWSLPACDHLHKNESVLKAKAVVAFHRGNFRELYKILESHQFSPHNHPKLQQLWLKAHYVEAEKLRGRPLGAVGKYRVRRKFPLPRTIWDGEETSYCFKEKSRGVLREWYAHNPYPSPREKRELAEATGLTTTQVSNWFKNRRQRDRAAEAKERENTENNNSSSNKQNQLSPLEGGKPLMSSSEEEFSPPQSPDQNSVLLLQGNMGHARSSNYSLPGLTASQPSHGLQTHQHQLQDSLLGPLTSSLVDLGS
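Six1/Eya2 binding was read as AlphaScreen signal after compounds were pinned into GST-Six1 plus His-tagged Eya2 (5X stock 250/500 nM) in pH 8.0 Tris/NaCl/TCEP buffer, beads added, then incubated 1 h, 37 C, dark.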
D2 potentiator: positive allosteric modulators of human D2 dopamine receptor; DiscoveRx D2 beta-arrestin cells, luminescence, 90 min; 100% = 57 uM dopamine signal; potentiation, % (concentration not given with the values); 360,000 tested, 0.23% active; active = potentiation of 50% or more; inconclusive = 30% to 50%; inactive = 30% or less;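 further: compound concentration not given in the record; tested on top of an EC20 dose of dopamine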
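PathHunter beta-arrestin assay in DiscoveRx D2 cells. Compounds were added with an EC20 of dopamine (50 nM final) for 90 min at 37 deg C. Luminescence was read 1 h after detection reagent, with 57 uM dopamine as the EC100 control.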
TRPV1 potentiator: potentiators of human vanilloid receptor 1 (TRPV1). 320,000 tested, 0.02% active. Q8NER1. potentiation, % at 8.33 µM. TRPV1-expressing cells, Fluo-8 calcium influx, capsaicin EC20 potentiation; host cell line not named in the record; control for the full effect not named in the record; active means potentiation above 80%; inconclusive means 30% to 80%; inactive means below 30%; further: 0% is about no effect
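Cells expressing TRPV1 were dye-loaded with Fluo-8 and read kinetically: 10 s baseline, 3 min after compound (agonist portion), then 2 min after EC20 capsaicin (allosteric enhancer portion). Calcium-bound dye fluorescence at 480/520 nm.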
* hit, by the source's call; ? = inconclusive; · = no result given; & = joins results of further samples. Outcome played no part in choosing rows (roughly 0.95% active in at least one column).

| Structure | TRPML1 agonist | TRPML1 blocker | CtBP-E1A blk | Six1-Eya2 inh | D2 potentiator | TRPV1 potentiator |
| --- | --- | --- | --- | --- | --- | --- |
| NC(=O)c1ccc(Oc2ccc(Cl)c3ccccc23)c([N+](=O)[O-])c1 | 0.8 | 18 | 1 | -13 | -17 | -18 |
| O=C(C1CCCCC1)N1C[C@@H](n2cc(-c3ccc(F)cc3)nn2)[C@H](O)C[C@@H]1c1ccc(Cl)cc1 | 0.2 | -2 | 3 | -2 | 2 | · |
| CCS(=O)(=O)Nc1ccc(C(=O)NCCSc2ccccc2)cc1 | 1.3 | 5 | 6 | 16 | -4 | ? |
| CCN(Cc1ccncc1)C(=S)Nc1c(C)cccc1C | 0.9 | 24 | 17 | -7 | -1 | -12 |
| Cc1ccc(N2C(=O)[C@@H]3C(c4cccnc4)=NO[C@@H]3C2=O)cc1 | 0.1 | -2 | · | -1 | -17 | 6 |
| CC1CCCC(NC(=O)c2ccc3snnc3c2)C1C (stereo not given) | 0.7 | -11 | · | 2 | -8 | -8 |
| Cc1cccc(NC(=O)CCNS(=O)(=O)c2ccc(Cl)cc2)c1 | -0.3 | -7 | 0 | -2 | -14 | -1 |
| COc1ccc(C(=O)COC(=O)C(CCCCN2C(=O)C3C4C=CC(C4)C3C2=O)N2C(=O)C3C4C=CC(C4)C3C2=O)cc1 (stereo not given) | 0.1 | 8 | 1 | -4 | 0 | -38 |
| O=C(NN=C(Cc1ccccc1)Cc1ccccc1)c1ccccc1F | 1.7 | 3 | 5 | -2 | -2 | -11 |
| Cc1ccc(-n2c(SCC(=O)N(C)C3CCS(=O)(=O)C3)nc3ccccc3c2=O)cc1 (stereo not given) | 3.2 | 29 | 3 | -4 | -8 | -2 |
| Cc1ccc(-n2c(COc3ccccc3)n[nH]c2=S)cc1 | -0.6 | 23 | 2 | 9 | -7 | -21 |
| CC(CN1CCN(C)CC1)OC(=O)c1cccc(F)c1 (stereo not given) | -0.3 | 2 | 2 | -4 | -11 | -7 |
| CSc1ccc(/C=C/C(=O)Nc2ccccc2)cc1 | 0.4 | 5 | -1 | 2 | -26 | 4 |
| Cc1cc(C2C(C#N)=C(N)OC3=C2C(=O)CC(C)(C)C3)c(C)s1 (stereo not given) | -1.2 | 4 | 6 | 1 | 22 | 4 |
| CCc1ccc(OCC(=O)N/N=C(\C)c2ccc(O)cc2O)cc1 | -0.8 | 27 | -21 | -15 | -7 | 0 |
| c1ccc(NCCSc2nc3ccccc3s2)cc1 | 2.6 | 24 | -7 | 10 | -18 | · |
| Cc1ccc(N2CCN(C(=O)C3CCN(S(=O)(=O)c4cccc5nsnc45)CC3)CC2C)cc1 (stereo not given) | -0.5 | -11 | 3 | -12 | 5 | · |
| COC(=O)c1cc(S(=O)(=O)N2CCCC(C)C2)c[nH]1 (stereo not given) | -0.8 | -20 | · | -1 | -2 | 1 |
| COc1ccc(CN2CCNC(=O)C2CC(=O)NCC2CCOCC2)cc1C (stereo not given) | -0.2 | 8 | 5 | 1 | 10 | 2 |
| CCSc1nc2sc3c(c2c(=O)n1-c1ccccc1C)CCN(C)C3 | -0.9 | -10 | -10 | -5 | -10 | 19 |
| CCOc1cc(CNCCO)cc(Br)c1OCc1cccs1 | -0.4 | -4 | -2 | 1 | -8 | -13 |
| O=C(Nc1ccc2c(c1)OCO2)C1CCN(S(=O)(=O)c2ccc3c(c2)OCCO3)CC1 | 0.3 | -12 | -17 | -16 | -6 | 11 |
| Cc1cccc(NC(=S)NCc2ccc3c(c2)OCO3)c1 | 1.7 | 10 | 12 | 0 | -20 | -11 |
| CCn1c(=O)c([N+](=O)[O-])c(Cl)c2ccccc21 | 5.6 | -7 | 2 | -13 | -40 | -17 |
| CC1(C)Cc2c(c(-c3ccco3)nc3sc4c(NCCCO)ncnc4c23)CO1 | -0.5 | 7 | · | -11 | -8 | -8 |

Looked up by compound from the entries so far, two records:
| Structure | TRPML1 agonist | TRPML1 blocker | CtBP-E1A blk | Six1-Eya2 inh | D2 potentiator | TRPV1 potentiator |
| --- | --- | --- | --- | --- | --- | --- |
| NC(=O)c1ccc(Oc2ccc(Cl)c3ccccc23)c([N+](=O)[O-])c1 | 0.8 | 18 | 1 | -13 | -17 | -18 |
| Cc1cccc(NC(=O)CCNS(=O)(=O)c2ccc(Cl)cc2)c1 | -0.3 | -7 | 0 | -2 | -14 | -1 |

The list goes on.
| Structure | TRPML1 agonist | TRPML1 blocker | CtBP-E1A blk | Six1-Eya2 inh | D2 potentiator | TRPV1 potentiator |
| --- | --- | --- | --- | --- | --- | --- |
| CN(C)CC(CCCCC(CN(C)C)C(=O)c1ccccc1)C(=O)c1ccccc1 (stereo not given) | 1.1 | -12 | 3 | -2 | -6 | 6 |
| O=C(CN1CCN(C(=O)c2cncn2-c2ccc(F)cc2)CC1)Nc1ccccc1C(F)(F)F | -0.6 | -1 | · | -2 | -6 | -8 |
| CC(C(=O)NCCCc1ccccc1)c1ccc([N+](=O)[O-])cc1 (stereo not given) | 1.2 | 23 | -2 | 9 | -3 | 13 |
| CCOc1ccc(/C=C/C(=O)OCC(=O)c2ccccc2OC)cc1OC | 0.2 | -3 | 2 | 3 | 7 | -8 |
| COc1ccc(Nc2nc(C)cc(=O)[nH]2)cc1 | -0.5 | -21 | 0 | 2 | 6 | -8 |
| Cn1c(CCNS(=O)(=O)c2ccccc2)nnc1SCc1cccnc1 | 0.5 | -10 | -21 | -10 | -4 | -10 |
| CC(C)(C)C1CCC(OC(=O)CCC(=O)Nc2ccccc2)CC1 (stereo not given) | 0.1 | -23 | -10 | 6 | 4 | -9 |
| Cc1ccc(NC(=O)c2nc[nH]c2C(=O)NCC(=O)OC(C)(C)C)cc1 | 1.8 | 11 | -2 | 1 | -4 | -7 |
| O=C(Cn1cnc2c(nnn2Cc2ccc(F)cc2)c1=O)OCc1ccccc1 | -0.2 | 8 | -9 | -10 | 17 | 5 |
| O=C(c1cc2cc(F)ccc2[nH]1)N1CCN(c2cccc(Cl)c2)CC1 | 2.2 | 1 | -8 | -14 | 1 | 16 |
| Cc1cccc(OCC(=O)Nc2ccc(C(=O)c3ccc(C(=O)O)cc3)cc2)c1 | -0.2 | 56 | -2 | 5 | 4 | 9 |
| CC(C)(C)NC(=O)CSc1nncn1NCc1c(Cl)cccc1Cl | -0.4 | 4 | 10 | 0 | 6 | 2 |
| CCc1ccccc1NC(=O)CN(C)C(=O)COC(=O)c1ccco1 | 0.2 | 3 | 7 | -1 | 1 | · |
| Nc1cccc(O)c1 | -0.4 | -5 | -3 | 0 | 1 | 3 |
| O=c1c2c(nc3nc(NCc4cccc5ccccc45)[nH]n13)CCC2 | 1.2 | 48 | 1 | 3 | -6 | 4 |
| CCC(=O)c1c[nH]c(C(=O)NCc2ccccc2OC)c1 | -0.5 | -4 | 7 | -5 | 1 | 24 |
| Cc1ccc(NC(=O)Cc2ccccc2)cc1S(=O)(=O)N1CCOCC1 | 1.2 | -11 | 10 | -2 | -8 | · |
| Cc1nc2ccccc2cc1C(=O)NCc1ccco1 | -0.6 | 3 | -4 | 13 | -4 | -7 |
| COCc1nc(-c2ccc(-c3ccc(C)cc3)nc2OC)no1 | 0.0 | -13 | 11 | 4 | 0 | -6 |
| CCCc1nc2scc(-c3ccc(C)cc3)c2c(=O)n1N | 0.1 | -16 | -2 | 2 | 17 | -3 |
| Cc1ccc(-n2c(SCC(=O)Nc3ccc(C(=O)O)cc3)nnc2-c2ccncc2)cc1 | -0.7 | -1 | -2 | -9 | -2 | 8 |
| C=CCSc1nnc(Cc2cc(=O)[nH]c(=O)[nH]2)n1-c1cc(C)ccc1C | -0.5 | 7 | 10 | 1 | 1 | -4 |
| CCc1cc(C(=O)Nc2ccc(C)cc2Br)cs1 | 4.7 | 7 | 9 | 58 | -14 | 11 |
| O=C1CCN(CCc2ccccc2)CCN1[C@H](COc1ccccc1)c1ccccc1 | -1.0&1.0 | 0 | -1 | -14 | -60 | -8 |
| CCCCC(CC)CNC(=O)CCCCn1c(=O)[nH]c2ccsc2c1=O (stereo not given) | 1.9&-0.2 | 37&0 | -3 | 7 | 0 | 6 |
| COc1ccccc1NC(=O)COC(=O)c1cnc(C)cn1 | 1.4 | 45 | 0 | 16 | -8 | -6 |
| Cc1[nH]c2ccccc2c1/C=N/Nc1nc2ccccc2[nH]1 | -0.1 | -8 | ? | -19 | -9 | -23 |
| COc1cc(C(=O)O/N=C2/C=CC(=O)C(C)=C2C)cc(OC)c1OC | 0.8 | -5 | 4 | 1 | 72* | 13 |
| Cc1ccc(-c2nc(N)sc2CC(=O)OCC(=O)NCCC(C)C)cc1 | 0.5 | -7 | 10 | -5 | -8 | 6 |
| Cc1ccc(OCC(=O)c2cc(C)n(-c3cc(C)on3)c2C)c([N+](=O)[O-])n1 | 3.0 | 7 | 0 | 5 | -14 | 2 |
| O=c1[nH]c(NCCO)nnc1Cc1ccc(Cl)cc1 | -1.0 | 8 | 1 | 9 | -2 | -4 |

A draw from above in order of molecular weight, rising.
| Structure | TRPML1 agonist | TRPML1 blocker | CtBP-E1A blk | Six1-Eya2 inh | D2 potentiator | TRPV1 potentiator |
| --- | --- | --- | --- | --- | --- | --- |
| Nc1cccc(O)c1 | -0.4 | -5 | -3 | 0 | 1 | 3 |
| O=c1[nH]c(NCCO)nnc1Cc1ccc(Cl)cc1 | -1.0 | 8 | 1 | 9 | -2 | -4 |
| CCC(=O)c1c[nH]c(C(=O)NCc2ccccc2OC)c1 | -0.5 | -4 | 7 | -5 | 1 | 24 |
| Cc1[nH]c2ccccc2c1/C=N/Nc1nc2ccccc2[nH]1 | -0.1 | -8 | ? | -19 | -9 | -23 |
| CCCc1nc2scc(-c3ccc(C)cc3)c2c(=O)n1N | 0.1 | -16 | -2 | 2 | 17 | -3 |
| COCc1nc(-c2ccc(-c3ccc(C)cc3)nc2OC)no1 | 0.0 | -13 | 11 | 4 | 0 | -6 |
| CCc1cc(C(=O)Nc2ccc(C)cc2Br)cs1 | 4.7 | 7 | 9 | 58 | -14 | 11 |
| O=c1c2c(nc3nc(NCc4cccc5ccccc45)[nH]n13)CCC2 | 1.2 | 48 | 1 | 3 | -6 | 4 |
| C=CCSc1nnc(Cc2cc(=O)[nH]c(=O)[nH]2)n1-c1cc(C)ccc1C | -0.5 | 7 | 10 | 1 | 1 | -4 |
| Cc1ccc(OCC(=O)c2cc(C)n(-c3cc(C)on3)c2C)c([N+](=O)[O-])n1 | 3.0 | 7 | 0 | 5 | -14 | 2 |
| Cc1ccc(NC(=O)Cc2ccccc2)cc1S(=O)(=O)N1CCOCC1 | 1.2 | -11 | 10 | -2 | -8 | · |
| Cc1ccc(-c2nc(N)sc2CC(=O)OCC(=O)NCCC(C)C)cc1 | 0.5 | -7 | 10 | -5 | -8 | 6 |
| CCCCC(CC)CNC(=O)CCCCn1c(=O)[nH]c2ccsc2c1=O (stereo not given) | 1.9&-0.2 | 37&0 | -3 | 7 | 0 | 6 |
| O=C1CCN(CCc2ccccc2)CCN1[C@H](COc1ccccc1)c1ccccc1 | -1.0&1.0 | 0 | -1 | -14 | -60 | -8 |
| Cc1ccc(-n2c(SCC(=O)Nc3ccc(C(=O)O)cc3)nnc2-c2ccncc2)cc1 | -0.7 | -1 | -2 | -9 | -2 | 8 |
